RecA splice inh – Mtb RecA intein splicing inhibition; P9WHJ3; cell-free RecA intein splicing, fluorescence; inhibition, %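 (about 9 µM by stock and volumes)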; 0.75% of 290,000 active; AID 2221; in the data active = inhibition above about 30%; inconclusive = no clear call, values can overlap the other calls;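 note: 0% = vehicle wells and 100% = reference inhibitor control wells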
Target sequence (P9WHJ3 whole entry, looked up, canonical isoform): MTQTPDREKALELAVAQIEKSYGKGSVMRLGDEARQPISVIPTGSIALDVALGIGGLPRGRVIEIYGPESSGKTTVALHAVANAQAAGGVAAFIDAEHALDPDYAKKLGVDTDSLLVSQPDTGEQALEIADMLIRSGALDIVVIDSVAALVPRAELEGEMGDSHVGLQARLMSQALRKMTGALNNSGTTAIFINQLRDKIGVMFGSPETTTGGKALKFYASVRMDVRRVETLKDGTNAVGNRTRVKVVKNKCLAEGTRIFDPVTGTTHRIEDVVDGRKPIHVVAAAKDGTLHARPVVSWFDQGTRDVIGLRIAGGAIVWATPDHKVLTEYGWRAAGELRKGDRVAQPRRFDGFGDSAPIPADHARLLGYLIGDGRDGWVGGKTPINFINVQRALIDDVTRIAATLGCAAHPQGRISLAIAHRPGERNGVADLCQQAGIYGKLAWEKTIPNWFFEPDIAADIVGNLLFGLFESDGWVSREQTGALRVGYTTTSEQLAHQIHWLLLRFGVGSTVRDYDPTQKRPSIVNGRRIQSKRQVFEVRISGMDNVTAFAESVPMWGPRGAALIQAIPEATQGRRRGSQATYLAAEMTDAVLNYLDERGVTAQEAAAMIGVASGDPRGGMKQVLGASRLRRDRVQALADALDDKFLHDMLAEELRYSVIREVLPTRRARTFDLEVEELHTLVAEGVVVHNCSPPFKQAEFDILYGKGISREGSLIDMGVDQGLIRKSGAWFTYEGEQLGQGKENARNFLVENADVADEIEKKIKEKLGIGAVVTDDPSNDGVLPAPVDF
YopH PTP inh – inhibitors of Yersinia enterocolitica YopH tyrosine phosphatase | fluorescence Ex485/Em525 | inhibition, %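 (about 10 µM by stock and volumes)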 | 0.16% of 140,000 active | AID 898;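 active = inhibition of 50% or more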;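 note: controls were vehicle for no effect and minimum signal wells for full effect; inactives centre near -20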
Mtb betalactam – beta-lactam sensitization of Mtb H37Rv; M. tuberculosis H37Rv growth with meropenem, percent inhibition; hits of this screen are not shown here; inhibition, % at 25 µM; 0.27% of 330,000 active; AID 434955;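 active = about 74% or more and at least 40 points above the plate without the antibiotic, then above 30% in a dose series; inconclusive = first-round hits that could not be retested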;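 note: growth measured after seven days incubation then overnight dye step; 0% = bacteria only wells and 100% = bacteria with antibiotic; twin plates without the antibiotic show which effects depend on it; some results filed as inactive read as strong as hits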
Mtb growth – M. tuberculosis H37Rv growth inhibitors, H37Rv strain (AID 1626) | M. tuberculosis H37Rv growth inhibition; higher % means a stronger effect | one-dose inhibition, % at 10 µM; IC50 in µM for titrated hits | 0.95% of 220,000 active;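 active = confirmed in a dose series; inconclusive = inhibition above 80% but not taken into the dose series; inactive = below 80% or under 30% at every dose of the series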;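 note: bacteria incubated seven days before Alamar blue readout; 0% = bacteria only wells and 100% = bacteria with antibiotic wells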
Arbovirus anti – blocks arbovirus infection. inhibition, % at 10 µM. 0.37% of 200,000 active. arbovirus infection cell-based antiviral screen;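 active = inhibition from about 30%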;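 note: bluetongue infection of BSR cells; cell survival read as ATP light after 72 h; 0% = infected wells without compound and 100% = uninfected wells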
Arbovirus anti repeat – also measured in Arbovirus anti; calls as there; inhibition, %; measured here: 10K subset replicate screen; many hits read low in the repeat;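 first of two repeat runs on a subset; 0% = infected and 100% = uninfected wells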
* hit, by the source's call; ? = inconclusive; . = no result given; & = joins results of further samples. Not all compounds are listed; count on the stated rates, not on these rows.

SMILES | RecA splice inh | YopH PTP inh | Mtb betalactam | Mtb growth | Arbovirus anti | others
Cc1cc(Cl)c(OCCCSc2nc(C)cc(=O)[nH]2)c(Br)c1 | -6.2 | -20 | -3 | 6% | 3
COc1ccc(S(=O)(=O)N2CCN(Cc3ccc(OC)c(OC)c3)CC2)cc1 | -1.8 | . | 4 | . | .
N/C(=N\OC(=O)c1cccc(F)c1)c1ccccc1 | 0.9 | -10 | -10 | . | -2
O=C(O)c1cccc(Nc2ccc3nonc3c2[N+](=O)[O-])c1 | -2.6 | . | -3 | . | .
CCCCCCn1nc(C(=O)N(CCOC)c2c(N)n(CCCC)c(=O)[nH]c2=O)c2ccccc2c1=O | -3.0 | . | -3 | . | .
O=C(NCCCSc1ccccc1)c1cc(Br)ccc1O | 22 | . | 33 | . | .
COc1ccc(CN2CCN(Cc3cccc4nonc34)CC2CCO)c(C)c1C (stereo unspecified) | 2.9 | . | -15 | 10% | 9
CCC1(C)NC(=O)N(CC(=O)Nc2sc3c(c2C(=O)OC)CCCCC3)C1=O (stereo unspecified) | 4.0 | -19 | 7 | 15% | 7
CCOC(=O)c1sc(NC(=O)c2ccccc2)cc1C | -2.8 | -11 | 9 | -2% | -11
N#Cc1ccsc1NC(=O)CN1C(=O)NC2(CCCC2)C1=O | -1.8 | . | -6 | . | .
COCCNC(=O)CSc1nc2ccccc2c(=O)n1CCC(=O)NCCc1ccc(OC)c(OC)c1 | -1.5 | . | -9 | 7% | 28
CCCCCCOc1ccc(/C(N)=N/O)cc1 | 14 | -3 | 3 | 6% | -17
Cc1ccc(OCCC(=O)Nc2ccc(F)c(F)c2)cc1 | 0.9 | -10 | -1 | -1% | 5
NC(=O)c1ccccc1NC(=O)CS(=O)(=O)Cc1ccccc1 | 0.2 | -39 | -6 | -4% | 1
Cc1nn(C)c(C(=O)NNC(=S)NC2CCCCC2)c1Br | 0.0 | . | 1 | 10% | 0
O=C1CC(=O)N(c2cccc(Br)c2)C(=O)N1 | -3.0 | . | -12 | . | .
O=C(COC(=O)CCSc1ccc(Cl)cc1)NCc1ccco1 | 3.4 | . | 0 | 7% | 0
COc1cccc(NC(=O)CSc2nc3ccsc3c(=O)n2-c2ccc(C(=O)O)cc2)c1 | 0.8 | . | 0 | -6% | 6
CC(C)OC(=O)/C(=C/c1ccco1)c1ccccc1 | -1.4 | . | -4 | 6% | .
COc1cc(OC)c2c(-c3ccccc3)cc(=O)oc2c1C(CCN1CCCCC1)c1ccc2c(c1)OCO2 (stereo unspecified) | 15 | . | 100 | 9.2µM* | .
Cc1ccc(-n2c(SCC(=O)Nc3ccc(N4CCOCC4)cc3)nc3ccccc3c2=O)cc1 | 0.0 | -18 | 46 | 44% | -13
CC(C)Cn1c(N)c(C(=O)CSc2ccc3c(c2)OCCO3)c(=O)n(C)c1=O | -1.1 | -32 | -6 | -5% | 8
C=CCNC(=S)NN=C1CCCCCCC1 | -3.4 | . | 99 | 1% | 1
CCOC(=O)c1sc(NC(=O)C(CC)Sc2nnc3c4ccccc4n(C(C)C)c3n2)nc1C (stereo unspecified) | . | -54 | . | ? | -13
S=c1[nH]cnc2sc(Nc3ccccc3)nc12 | 2.1 | . | 6 | -12% | .

Next section.
SMILES | RecA splice inh | YopH PTP inh | Mtb betalactam | Mtb growth | Arbovirus anti | others
COc1ccc(NS(=O)(=O)c2ccc3nc(COc4ccc5ccccc5c4)[nH]c3c2)cc1 | 6.4 | -30 | 2 | 15% | -2
Cc1cc(O)c2c(CN3CCN(Cc4ccccc4)CC3)cc(=O)oc2c1 | 2.8 | . | -1 | . | .
COc1ccc(S(=O)(=O)N2CCN(CC(=O)Nc3ccccc3Cl)CC2)cc1 | 0.7 | . | 4 | . | .
COc1cccc(CNc2nc3nc(C)cc(=O)n3[nH]2)c1 | 0.7 | -45 | -2 | -10% | 3
COc1ccc(Cl)cc1C(=O)NNC(=O)CSc1nnc2ccccn12 | 0.0 | . | -4 | -1% | 1
Cn1c(=O)c(=O)n(C)c2cc(S(=O)(=O)N3CCOCC3)ccc21 | 4.8 | -12 | 8 | -5% | -6
CCOC(=O)c1cnc(SCC)[nH]c1=O | 0.8 | -31 | -5 | 2%&4% | -1
CCOC(=O)c1c(C)n(C)c2c(C)cc(O)c(OC(C)=O)c12 | -2.6 | -95 | 7 | -11% | -5 | Arbovirus anti repeat=-2
CCOC(=O)N1CCN(S(=O)(=O)CCNC(=O)c2ccc(OC)cc2)CC1 | -1.9 | . | 1 | . | .
Cc1ccc(Sc2nnc(-c3ccccc3)cc2C#N)cc1 | 2.0 | -21 | -2 | -2% | 10
CC1(C(=O)NC(=S)NNC(=O)c2ccncc2)CCCCC1 | 1.5 | -15 | 99 | ? | -25
CC(C)CNS(=O)(=O)c1ccc(CCC(=O)NCCC2=CCCCC2)cc1 | -0.8 | . | -6 | 5% | -3
COc1cccc(CC2(CO)CCCN(CC3=Cc4cc(Cl)ccc4OC3)C2)c1 (stereo unspecified) | 12 | . | 10 | -3% | -17
O=c1cc(N2CCCCC2)c(-c2ccccc2)nn1Cc1cccc(Cl)c1 | 26 | 10 | -2 | 14% | -8
CCCNS(=O)(=O)c1ccc(OCC(=O)Nc2ccc3c(c2)OCO3)cc1 | -0.4 | . | -4 | -3% | -4
COc1ccc(C(=O)NC(=S)N2CCNC(=O)C2)cc1Br | -1.9 | . | 2 | 9% | 3
O=S1(=O)CC/C(=N\O)c2ccccc21 | 1.8 | 34 | -14 | -12% | -5
O=C1NC(=O)C(Cc2ccccc2)(c2cccnc2)N1 (stereo unspecified) | -3.4 | . | -4 | -2% | .
Cc1nnsc1S(=O)c1ccccc1Cl (stereo unspecified) | 0.4 | . | -6 | . | .
COC(=O)c1ccc(-n2cncn2)c([N+](=O)[O-])c1 | -1.7 | . | -2 | -3% | 2
O=C(NC(=S)NCCC1=CCCCC1)c1ccco1 | . | . | 3 | 7% | 4
O=C(Cn1c(COc2ccccc2)nc2ccccc21)Nc1cc(Cl)cc(Cl)c1 | 5.4 | -24 | 5 | 3% | -9
COc1ccc(OC)c2c(C)cc(N3CCN(C(=O)c4ccc(Cl)cc4)CC3)nc12 | . | -14 | 23 | 6% | 12
O=C(Cc1cccs1)NCc1ccccc1F | 0.3 | -7 | 4 | 1% | 7
CNc1nc2c(Cl)cc(Cl)cc2s1 | -3.6 | . | -12 | 0% | .

Filtered by structure: the entries above containing two or more sulfur atoms (four)
SMILES | RecA splice inh | YopH PTP inh | Mtb betalactam | Mtb growth | Arbovirus anti | others
COc1cccc(NC(=O)CSc2nc3ccsc3c(=O)n2-c2ccc(C(=O)O)cc2)c1 | 0.8 | . | 0 | -6% | 6
CCOC(=O)c1sc(NC(=O)C(CC)Sc2nnc3c4ccccc4n(C(C)C)c3n2)nc1C (stereo unspecified) | . | -54 | . | ? | -13
S=c1[nH]cnc2sc(Nc3ccccc3)nc12 | 2.1 | . | 6 | -12% | .
Cc1nnsc1S(=O)c1ccccc1Cl (stereo unspecified) | 0.4 | . | -6 | . | .

Later entries.
SMILES | RecA splice inh | YopH PTP inh | Mtb betalactam | Mtb growth | Arbovirus anti | others
CC1CCCCC1NC(=O)c1ccc(NS(=O)(=O)c2ccc3[nH]c(=O)[nH]c3c2)cc1 (stereo unspecified) | 0.0 | . | -7 | . | .
CSc1nncc(-c2ccc(F)c(F)c2)n1 | -0.2 | -33 | 58 | -13% | 8
Cc1ncc(CN2CCCC(C(=O)Nc3ccc(-c4cscn4)cc3)C2)cn1 (stereo unspecified) | -0.7 | . | -7 | . | .
CC(NC(=O)C1CCC(CNS(=O)(=O)c2ccccc2)CC1)c1ccc2c(c1)OCCO2 (stereo unspecified) | -0.2 | . | -1 | -1% | -4
CC(=O)c1ccc2c(c1)CC(C)C(=O)N2C (stereo unspecified) | 0.2 | -41 | -4 | 0% | 3
O=C(COCc1cc(-c2ccc3c(c2)OCO3)on1)N1CCCCC1 | -1.3 | . | ? | . | .
CCn1c(O)c2ccc(C(=O)N=NC(=O)c3cccnc3)cc2c1O | -4.7 | -45 | 4 | -6% | 17
Cc1ccc(-c2nnn(CC(=O)N(Cc3ccco3)C(C(=O)NC(C)(C)C)c3ccc(C)o3)n2)o1 (stereo unspecified) | 4.4 | . | 1 | -3% | 6
CCOC(=O)c1nn(-c2ccc(C)cc2)c(C)c1C(C)=O | -5.2 | 7 | ? | 2% | -3
COC(CNC(=O)C(=O)NCC1OCCN1C(=O)c1ccc(Cl)cc1)OC (stereo unspecified) | -4.5 | -25 | 7 | -2% | 5
CCOC(=O)CC(=O)CSc1nc(-c2ccc3c(c2)OCO3)cc(C(F)(F)F)c1C#N | -18 | -34 | -3 | 5% | 0
COc1ccc(CCC2CCNCC2)cc1 | 0.1 | . | 4 | . | .
O=S1(=O)C[C@@H](O)[C@@H](Nc2ccc(Cl)cc2)C1 | 2.2 | -25 | -17 | -10% | 4
CC(=O)c1cc(C#N)c(SCC(=O)Nc2nccs2)nc1C | . | . | 13 | 4% | -20
Cn1c(=O)c2c(nc(N3CCc4ccccc4C3)n2Cc2ccc(Br)cc2)n(C)c1=O | -1.3 | -4 | -1 | 14% | 5
c1cncc(-c2nnc(-c3cccs3)o2)c1 | -3.2 | -9 | -1 | -3% | 2
COc1ccc(S(=O)(=O)N2CCCC2C(=O)Nc2ccc(C)cc2)cc1 (stereo unspecified) | -8.0 | -42 | -1 | -7% | -1
COc1cccc(NC(=O)C2CCN(c3cnccn3)CC2)c1 | -2.7 | . | -7 | . | .
CCOC(=O)C1=C(C)NC(=O)NC1c1ccccc1Cl (stereo unspecified) | 1.2 | -21 | -5 | 3% | 2
COc1ccccc1/C=C/CN1CCOCC1 | 0.4 | 3 | ? | -1% | 3
CN(Cc1ccccc1)C(=O)CSc1nc2ccccc2c(=O)n1Cc1ccco1 | 6.6 | -44 | 3 | -3% | 13
O=C(O)Cc1sc(Nc2cccc3ccccc23)nc1-c1ccc(F)cc1 | -1.5 | . | 5 | . | .
COc1cc(OC)c2ccc(=O)oc2c1C(CC(=O)N1CCOCC1)c1ccc(N(C)C)cc1 (stereo unspecified) | -3.9 | . | 2 | -12% | .
CCC(CC)C(=O)Nc1nnc(S(=O)(=O)N2c3ccccc3CC2C)s1 (stereo unspecified) | 0.3 | . | -4 | . | .
CCOC(=O)N1CCN(c2cc(C)c([N+](=O)[O-])cc2F)CC1 | 1.6 | . | -14 | 1% | 6

Following part
SMILES | RecA splice inh | YopH PTP inh | Mtb betalactam | Mtb growth | Arbovirus anti | others
O=C1Nc2ccccc2/C1=C/c1ccccc1Cl | 10 | . | 1 | . | .
Cn1ncc(C#N)c1NC(=O)C1CC(c2c(F)cccc2Cl)=NO1 (stereo unspecified) | 0.9 | -16 | -2 | 68% | 23
CCCC(=O)Nc1nn(C)c2nc3ccc(C)cc3cc12 | -58 | . | ? | . | .
CCCCn1c(=O)[nH]c(=O)c2c1nc(-c1ccc3ccccc3c1)n2CC | -2.4 | . | 1 | 4% | 7
COC(=O)c1c(NC(=O)C2Cc3ccccc3C(=O)O2)sc2c1CCCC2 (stereo unspecified) | -2.7 | -17 | 1 | -8% | 4
O=C(Nc1cccc(Cl)c1)N1N=CCC1c1ccccc1 (stereo unspecified) | -2.0 | . | 2 | 10% | .
O=C(Nc1ccc(N2CCN(c3ccc(C(F)(F)F)cn3)CC2)nc1)c1cccs1 | -0.8 | . | 37 | -2% | .
COc1ccc(/C=C/c2cccc[n+]2C)c(O)c1 | 1.1 | . | 1 | . | .
CCOC(=O)CSc1cc(=O)n(CC)c2ccccc12 | 4.5 | -13 | 73 | -7% | -1
CCn1nnc(NC(=O)C(c2ccccc2)c2ccccc2)n1 | 1.3 | . | 18 | 0% | -1
Cc1cccc(NC(=O)c2cccnc2)c1C | 4.3 | . | -2 | . | .
Cc1ccc(-c2[nH]nc3c2C(c2ccoc2)C(C#N)=C(N)O3)cc1C (stereo unspecified) | 92* | -3 | 7 | 0% | 0
CCOC(=O)N1CCN(C(=O)/C=C/c2ccc(OC)c(OC)c2)CC1 | -1.6 | . | -5 | . | .
Cc1ccc(CNC(=O)Cc2cccs2)cc1 | 0.8 | 1 | 13 | 16% | 1
CCC(CC)C1C(C#N)=C(N)Oc2cc(C)oc(=O)c21 (stereo unspecified) | -3.3 | -9 | -1 | -11% | 9
O=C(NCc1cccc(C(F)(F)F)c1)C1CC(c2ccccc2C(F)(F)F)=NO1 (stereo unspecified) | -1.7 | . | 5 | -1% | .
Cc1cccc(CSc2nn3c(=O)c(C)nnc3s2)c1 | 3.9 | -5 | -5 | -10% | 40*

Gathered by group, the compounds so far with a nitro group on carbon (3)
SMILES | RecA splice inh | YopH PTP inh | Mtb betalactam | Mtb growth | Arbovirus anti | others
O=C(O)c1cccc(Nc2ccc3nonc3c2[N+](=O)[O-])c1 | -2.6 | . | -3 | . | .
COC(=O)c1ccc(-n2cncn2)c([N+](=O)[O-])c1 | -1.7 | . | -2 | -3% | 2
CCOC(=O)N1CCN(c2cc(C)c([N+](=O)[O-])cc2F)CC1 | 1.6 | . | -14 | 1% | 6

Assay outcomes (PubChem)
